miR-21 reporter: raises the signal of a miR-21 reporter; Potency, µM (series often up to 38.3 µM), for inactives: at the top dose reporter change, positive = more light; HeLa miR-21 FLuc reporter, luciferase, 48 h; 340,000 tested, under 10 active; active = well fitted rising curve with a large enough effect; inconclusive = small, poorly fitted or top-dose-only effect; inactive = no such curve, though single readings can be large or run the other way;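 note: % of control where 0% means no effect; miR-21 action dims this reporter so a rising signal means less miR-21 action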
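HeLa miR-21-FLuc reporter line, endogenous miR-21; 2000 cells/well in DMEM/10% FBS; compound titration up to ~40uM final, 48 h, 37 degree Celsius; luciferase detection reagent, 15 min lysis, CCD luminescence.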
Rango-impB inh: inhibitors of Rango-importin beta complex formation; Q14974; Rango CFP/YFP FRET sensor + importin beta, 45 min; Potency, µM (highest dose often 92.2 µM), without a hit: at the highest dose inhibition of complex formation; 340,000 tested, 0.031% active; AID 540263; active = rising FRET ratio curve, often small or poorly fitted; inconclusive = mostly compound fluorescence or quenching in the first reads; inactive = flat curves in all reads;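 note: potency is the fitted concentration of half-maximal effect; 0% = DMSO wells and 100% = buffer wells lacking importin beta; nearly all actives have a fitted effect of over 15% in size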
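FRET biosensor Rango (snurportin 1 IBB between N-terminal EYFP and C-terminal Cerulean), 50 nM in PBS/1 mM DTT/0.02% Tween-20/0.1% BSA, preincubated 5 min RT with compound; 0.125 microM importin beta added, 45 min RT, CFP/YFP FRET ratio read.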
Rango dissoc inh: prevents RanGTP from dissociating the Rango-importin beta complex. 340,000 tested, 0.071% active. AID 540253. Biochemical FRET Rango-importin beta, RanGTP-induced dissociation. Potency, µM (series often up to 46.1 µM), without a hit: at the highest dose activity change, negative = inhibition. O95149+P62826; active means falling FRET ratio curve, often poorly fitted, with flat reads before Ran was added; inconclusive means other falling curves, or compound fluorescence or quenching; inactive means flat or rising ratio curve;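 note: potency is the fitted concentration of half-maximal effect; % of control where 0% means no effect; nearly all actives have a fitted effect of over 45% in size; -100% = wells without RanGTP and RCC1; the record marks most hits as doubtful in a second field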
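Compounds sat 5 min at room temperature with 0.1 uM Rango biosensor plus 0.25 uM importin beta, then FRET pre-read. RanGTP-RCC1 (0.6 uM Ran, 2mM GTP, 0.2 uM RCC1) added for 45 min, and the CFP/YFP post-read measured blocked complex dissociation.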
GLA inh pH 4.5: inhibitors of human alpha-galactosidase A at pH 4.5. purified enzyme, 4-MU-alpha-Gal fluorescence, pH 4.5. activity change, negative = inhibition, % at 105 µM. 230,000 tested, under 10 active; inconclusive = small, poorly fitted or top-dose-only inhibition, or a rising curve; inactive = flat fitted curve, though single readings scatter; no compound was filed as active;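 note: 0% = full activity with enzyme and -100% = basal without enzyme; dose as in the result columns while the protocol names 77 µM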
Target sequence (P06280 whole entry, looked up): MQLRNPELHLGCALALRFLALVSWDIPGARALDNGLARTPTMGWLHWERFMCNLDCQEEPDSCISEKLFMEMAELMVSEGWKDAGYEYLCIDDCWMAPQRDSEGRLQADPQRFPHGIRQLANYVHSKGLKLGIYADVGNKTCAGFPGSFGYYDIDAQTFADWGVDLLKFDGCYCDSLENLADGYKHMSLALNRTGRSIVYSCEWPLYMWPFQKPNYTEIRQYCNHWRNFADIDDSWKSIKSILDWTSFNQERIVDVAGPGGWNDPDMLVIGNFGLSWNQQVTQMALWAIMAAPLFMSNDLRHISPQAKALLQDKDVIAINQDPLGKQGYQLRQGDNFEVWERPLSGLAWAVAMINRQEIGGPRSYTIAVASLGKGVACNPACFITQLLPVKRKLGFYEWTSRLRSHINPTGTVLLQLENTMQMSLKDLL
Numbers without * were called inactive; u = inconclusive; x = not tested or not shown; & = joins results of further samples. An excerpt, so the mix of outcomes need not match the whole.

item	molecule	miR-21 reporter	Rango-impB inh	Rango dissoc inh	GLA inh pH 4.5
1	Cc1[nH]c(=S)c(C#N)c(C)c1Cc1ccccc1	-14%	0.4%	5%	0
2	O=C1NCCCC1C(=O)N/N=C/c1ccc([N+](=O)[O-])cc1 (stereo unspecified)	-1%	1.7%	11%	1
3	COc1ccc(S(=O)(=O)N2CCOCC2)c(Cl)c1Cl	-31%	-5.9%	-1%	8
4	COc1ccc(Cl)cc1C(=O)Nc1cccc2ncccc12	-12%	1.0%	-1%	x
5	C/C(=N\NC(=O)C(=O)Nc1cccc(Cl)c1C)c1ccncc1	-1%	2.4%	-11%	-3
6	CCC(C)(C)NC(=O)C(c1ccc(F)cc1)N(Cc1ccco1)C(=O)c1snc(C(N)=O)c1N (stereo unspecified)	-3%	-5.0%	-2%	13
7	COC(=O)CNC(=O)Cn1cnc2sc(C)c(S(=O)(=O)N3CCC(C)CC3)c2c1=O	-1%	0.7%	-1%	-3
8	C=CCOc1nc2sc(C)c(C)c2c(=O)n1-c1ccccc1	-12%	-1.5%	-4%	x
9	Cc1ccc(S(=O)(=O)N2CCCCC2)cc1NC(=O)CN1C(=O)c2ccccc2S1(=O)=O	x	5.2%	1%	x
10	COc1ccc(C2Nc3ccccc3C(=O)N2NC(C)=O)c(OC)c1 (stereo unspecified)	0%	-1.2%	1%	x
11	Cc1cc(=O)oc(C)c1C(=O)N1CCN(c2ccc(F)cc2)CC1	0%	-2.3%	-3%	5
12	Cc1cc(C)n2nc(SCCOc3ccc(F)cc3)nc2n1	-29%	3.7%	3%	0
13	CN(C)/C=C/C(=O)C(F)(F)F	4%	3.3%	7%	12
14	COc1cccc(NC(=O)COC(=O)c2ccc(F)cc2F)c1	-18%	-2.3%	-10%	-5
15	CCOC(=O)COc1cc(OCC(=O)OCC)c2c3c(c(=O)oc2c1)CCCC3	6%	-4.8%	-5%	x
16	Cc1occc(=O)c1OCc1c(F)cccc1Cl	-4%	1.9%	-12%	-3
17	CCn1c(=N)n(CC(=O)c2ccc(Cl)c(Cl)c2)c2ccccc21	-65%	-3.2%	5%	x
18	CC1=C(C)C(c2ccccc2)NC(=S)N1 (stereo unspecified)	-7%	8.1%	1%	0
19	Cc1cc(C(=O)CC#N)c(C)n1-c1c(C)n(C)n(-c2ccccc2)c1=O	-1%	-1.2%	-2%	-3
20	COc1cc(COc2ccc3c(C)c(CCC(=O)O)c(=O)oc3c2)cc(OC)c1OC	-17%	-1.5%	2%	x
21	CCOC(=O)c1ccc(NC(=S)Nc2ccc3[nH]c(=O)[nH]c3c2)cc1	-14%	0.1%	-8%	4
22	COc1ccc(CCC(N)=O)cc1OC	3%	1.1%	5%	2
23	c1cc(-c2nn[nH]n2)ccc1CN1CCCCC1	-2%	2.0%	-2%	1
24	COc1cccc(C(c2c(NC(=O)c3ccccc3)sc(C)c2C)N2CCN(C)CC2)c1 (stereo unspecified)	-4%	2.8%	1%	1
25	C=CCC[C@H](Cc1ccc(F)cc1)C(=O)OC[C@H](Cc1c[nH]c2ccccc12)NC(=O)[C@H](CC=C)CC(=O)NCCO	x	-2.7%	0%	x
26	CC(=O)Oc1ccc(Cn2cnc3cc4ccccc4cc32)cc1	-32%	3.2%	0%	-3
27	Cc1nnc(N(C)C(=O)c2ccc3c(c2)OCO3)s1	-13%	3.0%	0%	9
28	O=C1c2ccccc2C(Nc2cccnc2)N1Cc1ccccc1Cl (stereo unspecified)	-10%	-0.3%	-11%	8
29	CC1(C)C2CCC(C2)C1(C)NC(=O)CN1CCCC1 (stereo unspecified)	-4%	-0.3%	-14%	x
30	Cc1ccc(CN(C)C(=O)c2cc(S(=O)(=O)N3CCOCC3)ccc2F)o1	x	4.8%	1%	x

item	molecule	miR-21 reporter	Rango-impB inh	Rango dissoc inh	GLA inh pH 4.5
31	O=C1c2cccnc2C(=O)N1Cc1ccc(S(=O)(=O)N2CCN(c3ccc(Cl)cc3)CC2)cc1	2%	-0.3%	4%	x
32	COc1ccc(NS(=O)(=O)c2ccc3c(c2)CCN3C(=O)CCC(=O)O)cc1OC	-22%	0.5%	6%	x
33	O=C(CSc1nc2ccccc2n1CC(=O)N1CCCC1)NCc1ccc2c(c1)OCO2	0%	-5.4%	10%	13
34	O=C(Nc1ccncc1)c1ccc2ncsc2c1	x	-4.9%	3%	x
35	CN(CC(=O)Nc1ccc(N2CCOCC2)cc1)CC(=O)Nc1ccc(N2CCOCC2)cc1	6%	-1.9%	12%	-1
36	O=S(NC1CCCCC1)C12CC3CC(CC(C3)C1)C2 (stereo unspecified)	-11%	-0.3%	-6%	5
37	Cc1ccc(-n2c(-c3c(-c4ccccc4)noc3C)n[nH]c2=S)cc1	0%	-1.6%	1%	4
38	c1ccc(-c2ccc(-c3ccccn3)s2)nc1	-63%	u	u	u
39	O=C(Nc1ccccc1F)c1ccc(CN2CCN(c3ccccc3)CC2)cc1	-5%	7.4%	0%	x
40	O=C(COC(=O)c1cc(=O)[nH]c(=O)[nH]1)NCc1ccccc1	-6%	8.7%	-17%	-8
41	C#CCOc1nc(C)cc(C)c1S(=O)(=O)c1ccccc1C	1%	-0.8%	-7%	-3
42	CCOC(=O)c1sc(C)c2c(=O)n(Cc3ccc(Cl)cc3)cnc12	1%	-0.9%	10%	6
43	CS(=O)(=O)N1CCN(C(=O)c2cc(-c3ccncc3)nc3ccc(Cl)cc23)CC1	2%	0.0%	0%	8
44	O=C1CCSc2ccc(Cl)cc2N1Cc1cccc(Cl)c1	1%	-3.1%	-14%	-25
45	Cc1cccc(C(=O)NCN2CCN(c3ccccc3C#N)CC2)c1	x	-0.4%	1%	-15&5
46	O=C(NCCc1ccc(Cl)cc1)C1CCC(=O)N1Cc1ccc(F)cc1 (stereo unspecified)	0%	-1.0%	27%	-2
47	CC[C@]12c3[nH]c4cc(CCC(=O)N(C)C)ccc4c3CCN1C(=O)[C@@H](CC(=O)NCCCOC)C[C@@H]2C(=O)N1CCN(C(=O)c2ccco2)CC1	x	3.9%	9%	x
48	C=CC[C@@H](CC(=O)N(CCO)Cc1ccccc1)C(=O)N[C@H](COC(=O)[C@@H](CC=C)CC(=O)OC(C)(C)C)Cc1c[nH]c2ccccc12	x	0.3%	11%	x
49	Nc1nonc1-n1nnc(C(=O)N/N=C/c2ccccc2)c1CSc1ccc(Cl)cc1	0%	-2.5%	-1%	-3
50	CC(NC(=O)c1ccc([N+](=O)[O-])o1)C1CC2CCC1C2 (stereo unspecified)	x	u	9%	x
51	CCOC(=O)/C=C1\CN(CCC(C)C)S(=O)(=O)c2ccccc21	-5%	-4.7%	3%	x
52	CC1CCCCN1S(=O)(=O)c1cnc(Cl)c(Br)c1 (stereo unspecified)	1%	-0.5%	-6%	-1
53	O=c1c(Br)c(NCc2ccccc2)cnn1-c1ccc(F)cc1	-51%	-1.3%	-6%	-26
54	CCOC(=O)CCC(=O)N1CCOCCOCCN(C(=O)CCC(=O)OCC)CCOCCOCC1	-2%	4.1%	-1%	4
55	Cc1ccc(SCCNC(=O)c2ccccc2C)cc1	-8%	2.6%	-11%	0
56	C=CCn1cnc2c(nnn2-c2ccc(C)c(C)c2)c1=O	-53%	-0.7%	19%	2
57	O=C(NCCCc1ccccc1)c1ccc(CS(=O)Cc2ccccc2Cl)o1 (stereo unspecified)	3%	7.5%	-1%	x
58	CC(=O)Nc1ccc(NC(=O)c2cc(=O)c3ccc(C)cc3o2)cc1	0%	u	-19%	x
59	Cc1cc(C)c2c(c1)/C(=N/Nc1ccc(S(N)(=O)=O)cc1[N+](=O)[O-])CCC2	0%	1.9%	1%	-6
60	NC(=O)C1=C[C@H](c2ccc3c(c2)OCO3)C[C@H](OCc2ccc(CO)cc2)O1	-60%	-2.9%	14%	-3

One compound at a time (already shown). Order of values: miR-21 reporter	Rango-impB inh	Rango dissoc inh	GLA inh pH 4.5
Shown for CS(=O)(=O)N1CCN(C(=O)c2cc(-c3ccncc3)nc3ccc(Cl)cc23)CC1 = 2%	0.0%	0%	8
Shown for CC(=O)Nc1ccc(NC(=O)c2cc(=O)c3ccc(C)cc3o2)cc1 = 0%	u	-19%	x

Carrying on:
item	molecule	miR-21 reporter	Rango-impB inh	Rango dissoc inh	GLA inh pH 4.5
61	Cc1noc(C)c1S(=O)(=O)Nc1ccccc1Cl	1%	1.3%	-13%	x
62	O=C(Nc1ccc(Cl)cc1)OCc1cncs1	-42%	1.6%	-7%	6
63	COc1ccc(CCN(Cc2cccs2)S(=O)(=O)c2ccc(S(=O)(=O)N(C)C3CCCCC3)cc2)cc1OC	-3%	3.6%	-22%	3
64	CCCc1cc(=O)[nH]c(SCC(=O)c2cc(C)n(CCOC)c2C)n1	-12%	1.8%	-13%	1
65	COc1cc(/C=C/c2noc(-c3ccccc3O)n2)cc(OC)c1OC	-8%	1.1%	8%	0
66	O=C(Cc1ccccc1)Nc1ccc(S(=O)(=O)N2CCOCC2)cc1	0%	0.2%	1%	x
67	CCOC(=O)c1cc(=O)c2c([N+](=O)[O-])ccc(OC)c2o1	-1%	-0.5%	7%	3
68	CCOC(=O)/C=C/[C@H]1CC2(CCO1)SCCCS2	x	-1.4%	5%	x
69	O=C(N/N=C/c1ccc(OC(F)F)cc1)C1=COCCO1	-38%	2.1%	-7%	-27
70	Cc1nc(-c2cccc(S(=O)(=O)N3CCC(C)CC3)c2)cs1	-10%	0.2%	3%	-4
71	COc1ccccc1C1CC(=O)n2c(nc(-c3ccccc3)c2-c2ccccc2)S1 (stereo unspecified)	0%	0.5%	4%	4
72	CS(=O)(=O)N1CCN(c2ccccc2NC(=O)c2ccc(Br)o2)CC1	16%	4.5%	12%	0
73	Oc1ccc2ccccc2c1CN1CCN(c2ccccc2)CC1	-4%	u	3%	2
74	CCOC(=O)[C@@H]1[C@H]2COc3cc(OC)ccc3[C@@H]2N2C(=O)N(c3ccc(Br)cc3)C(=O)[C@@]12C	6%	-1.7%	10%	x
75	Cc1ccc(CCNC(=O)C2CCCN(C(=O)N(C)C)C2)cc1 (stereo unspecified)	-1%	-1.0%	0%	6
76	CC(=O)n1nc(-c2ccccc2)nc1NCc1ccc(N(C)C)cc1	-46%	-0.6%	1%	-3
77	CC(C)(C)C(=O)Nc1ccc2c(c1)-c1cc(NC(=O)C(C)(C)C)ccc1C2	-14%	-1.5%	6%	-1
78	O=C1c2ccccc2-c2onc3c(Oc4ccccc4)cc(O)c1c23	-13%	x	x	5
79	COc1ccc(S(=O)(=O)c2c(O)c3ccc(C(=O)Nc4ccccc4)cc3[nH]c2=O)cc1	0%&-4%	0.5%	-7%	x
80	O=C(CSc1ncccn1)NCc1ccccc1Cl	-48%	5.4%	-2%	12
81	COC(=O)CCSCC(=O)N1N=C(c2ccc(Br)cc2)CC1c1cccc(OC)c1OC (stereo unspecified)	6%	-0.2%	3%	-3
82	Cc1cc(Br)ccc1OCC(=O)NC1CCCC1	-12%	-1.5%	-1%	x
83	CC(=O)C12CCCCC1CC1C3CC(C)C4(O)CC(=O)CCC4(C)C3CCC12C (stereo unspecified)	-8%	0.0%	3%	x
84	COC(=O)C(C)(C)ONC(=O)Nc1ccccc1Cl	-3%	2.6%	13%	2
85	C=CCN(CC=C)C(=O)Cc1ccc(F)cc1	-2%	0.5%	1%	0
86	COc1ccc(C(=O)NC(=S)Nc2ccc([N+](=O)[O-])cc2C)cc1OC	-10%	0.0%	0%	-5
87	Cc1nn(-c2ccccc2)c(Cl)c1C(=O)Nc1nnc(C2CCCCC2)s1	-3%	1.9%	-1%	5
88	Cc1onc(-c2c(Cl)cccc2Cl)c1C(=O)N1CCOCC1	0%	2.5%	-10%	x
89	COc1ccc(OC)c(NC(=O)C(=O)NNC(=O)c2cccs2)c1	1%	-4.6%	1%	4
90	O=C(Nc1ccccc1)C1=C[C@H](c2ccc(C(F)(F)F)cc2)C[C@H](OCc2ccc(CO)cc2)O1	-2%	u	-11%	-13
91	COc1cccc(NC(=O)COC(=O)CCn2c(C)csc2=O)c1	x	1.7%	10%	x

Assay outcomes as filed in PubChem.
